VDR inh = inhibitors of human vitamin D receptor; VDR-SRC2-3 peptide fluorescence polarization, 2 h; AID 504847; actives 0.93% (n = 400,000); Potency, µM, for the others: max response, negative = inhibition, hits mostly inhibitors; active = well fitted inhibition curve with a large enough effect; inconclusive = small, poorly fitted or top-dose-only effect, or another doubt; inactive = no such curve, though single readings can be large or run the other way; note: series mostly up to about 120 µM
Target sequence (P11473 whole entry, looked up): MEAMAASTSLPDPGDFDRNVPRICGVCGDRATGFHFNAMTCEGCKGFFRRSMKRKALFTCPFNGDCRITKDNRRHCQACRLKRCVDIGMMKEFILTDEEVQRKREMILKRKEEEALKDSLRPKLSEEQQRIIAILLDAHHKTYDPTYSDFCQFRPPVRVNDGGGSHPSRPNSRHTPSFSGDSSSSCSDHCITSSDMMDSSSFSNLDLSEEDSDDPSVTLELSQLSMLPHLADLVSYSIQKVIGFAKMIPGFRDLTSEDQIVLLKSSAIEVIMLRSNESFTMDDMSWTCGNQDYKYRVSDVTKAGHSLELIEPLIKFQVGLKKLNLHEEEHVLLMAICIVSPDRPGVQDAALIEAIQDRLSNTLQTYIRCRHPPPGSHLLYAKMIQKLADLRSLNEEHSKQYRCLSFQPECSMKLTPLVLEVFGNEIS
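FP read-out; VDR + SRC2-3 coactivator peptide; 23 nl compound by pintool; 2 h RT incubation; reagents held at 4 deg C, protected from light.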
The depositor's hits bear a star; ? = inconclusive; & = joins results of further samples; [ ] = another dose, or the depositor's remark. % is set by controls: 0 for no effect and ±100 for the full control effect; potency is the fitted concentration of half-maximal effect. Not all compounds are listed; count on the stated rates, not on these rows.

Sample of the layout:
SMILES	VDR inh
Cc1oc(C(C)(C)C)c(CN2CCCC2)c1C(=O)O	2%
COc1ccc(CNC(=O)C2CCN(C(=O)c3ccco3)CC2)cc1	3%
CCN(CC(=O)NCc1ccc(Cl)cc1)CC(=O)Nc1ccc(C(N)=O)cc1	5%
CC(C(=O)NCc1ccccc1F)n1ccc2cc(S(=O)(=O)N3CCCC3)ccc21 (stereo not drawn)	0%
COC(=O)C1=C[C@@H](C(=O)OC)C2C3=C(C(=O)[C@@]2(C)NC(=O)c2ccccc2)[C@H](c2ccccc2)n2c(=O)n(-c4ccccc4)c(=O)n2[C@@H]3C1 (stereo partly drawn)	8%
COc1ccccc1CNC(=O)c1cccc(-c2ccc(C)c3ccccc23)n1	2%
Cc1ccc2oc(-c3ccc(C)c(NC(=S)NC(=O)c4cccs4)c3)nc2c1	32%[activator]
O=C1NC(=S)N/C1=C\c1ccccc1OCc1ccc(C(=O)O)cc1	28%
CSc1nc(N)nc2c1ncn2CC(=O)Nc1ccc(C)c(C)c1	2%
CCOc1ccc(Sc2cc(C(=O)NC(C)c3ccccc3)c3ccccc3n2)cc1 (stereo not drawn)	5%
O=C1C=C(NCc2ccc3c(c2)OCO3)CC(c2ccccc2)C1 (stereo not drawn)	-3%
CN1CCN(C(=O)CCNC(=O)Cn2ccc3ccccc3c2=O)CC1	-12%
Cc1nnnn1/C(=C\c1ccccc1)C(=O)OCC(=O)NC1CCCCC1	?
CCOC(=O)C1CSC(CC(=O)Nc2ccc(OCC)cc2)C(=O)N1 (stereo not drawn)	12%

Results (from the top)
SMILES	VDR inh
Cc1oc(C(C)(C)C)c(CN2CCCC2)c1C(=O)O	2%
COc1ccc(CNC(=O)C2CCN(C(=O)c3ccco3)CC2)cc1	3%
CCN(CC(=O)NCc1ccc(Cl)cc1)CC(=O)Nc1ccc(C(N)=O)cc1	5%
CC(C(=O)NCc1ccccc1F)n1ccc2cc(S(=O)(=O)N3CCCC3)ccc21 (stereo not drawn)	0%
COC(=O)C1=C[C@@H](C(=O)OC)C2C3=C(C(=O)[C@@]2(C)NC(=O)c2ccccc2)[C@H](c2ccccc2)n2c(=O)n(-c4ccccc4)c(=O)n2[C@@H]3C1 (stereo partly drawn)	8%
COc1ccccc1CNC(=O)c1cccc(-c2ccc(C)c3ccccc23)n1	2%
Cc1ccc2oc(-c3ccc(C)c(NC(=S)NC(=O)c4cccs4)c3)nc2c1	32%[activator]
O=C1NC(=S)N/C1=C\c1ccccc1OCc1ccc(C(=O)O)cc1	28%
CSc1nc(N)nc2c1ncn2CC(=O)Nc1ccc(C)c(C)c1	2%
CCOc1ccc(Sc2cc(C(=O)NC(C)c3ccccc3)c3ccccc3n2)cc1 (stereo not drawn)	5%
O=C1C=C(NCc2ccc3c(c2)OCO3)CC(c2ccccc2)C1 (stereo not drawn)	-3%
CN1CCN(C(=O)CCNC(=O)Cn2ccc3ccccc3c2=O)CC1	-12%
Cc1nnnn1/C(=C\c1ccccc1)C(=O)OCC(=O)NC1CCCCC1	?
CCOC(=O)C1CSC(CC(=O)Nc2ccc(OCC)cc2)C(=O)N1 (stereo not drawn)	12%
COc1cccc(CNc2ncnc3nc[nH]c23)c1	-23%&-12%
NS(=O)(=O)c1ccc(N2CCCC2=O)c([N+](=O)[O-])c1	20%
Cc1nn(-c2ccccc2)c(C)c1C(=O)OCC(=O)NC12CC3CC(CC(C3)C1)C2	11%
C=CCN1C(=O)c2ccc(C(=O)N(CCC)CC(=O)Nc3ccccc3C)cc2C1=O	11%
CCC(C)C(NC(=O)c1ccccc1)C(=O)Nc1ccc(S(=O)(=O)Nc2cc(C)nc(C)n2)cc1 (stereo not drawn)	-18%
COCCN(CCOC)S(=O)(=O)c1ccc(NC(=O)c2cnccn2)cc1	-15%
Cc1oc(-c2ccccc2Cl)nc1CN1CCCC1c1ccc(F)cc1 (stereo not drawn)	14%
O=C(O)c1cc(O)c2c(c1)[C@H]([C@H]1c3cc(C(=O)O)cc(O)c3C(=O)c3c(O[C@@H]4OC(CO)C(O)C(O)C4O)cccc31)c1cccc(O[C@@H]3OC(CO)C(O)C(O)C3O)c1C2=O (stereo partly drawn)	40µM*
CC1(NC(=O)C2CCCCC2)CCS(=O)(=O)C1 (stereo not drawn)	-3%
CCOC(=O)c1c(C)[nH]c(C(=O)OCc2csc(CC(=O)Nc3ccccc3C)n2)c1C	0%
Cc1nc(N)sc1C(=O)N/N=C/c1ccco1	-6%
CC(=O)Nc1cccc(NC(=O)C(=O)NCCc2sc(-c3ccccc3)nc2C)c1	2%
COc1ccc(C(=O)Nc2nc3c(s2)Cc2c(Br)ccc(OC)c2-3)cc1OC	-1%
CC(C)CCNC(=O)C(C)N(C(=O)Cn1nnc(-c2ccc(F)cc2)n1)C1CCCC1 (stereo not drawn)	-6%
CC(C)n1nnnc1SCC(=O)N1CCN(Cc2ccc3c(c2)OCCO3)CC1	15%
Cc1ncc(CN2CCC(N3CCC(C(=O)N4CCCC4)CC3)CC2)s1	1%
CC(=O)c1c(C)[nH]c(C(=O)CN2C(=O)NC3(CCCCC3C)C2=O)c1C (stereo not drawn)	-9%
Cn1c(=O)cc(SCC(=O)N2CCN(c3ccccc3F)CC2)c2ccccc21	-14%
Cc1nc(CCNC(=O)c2cccs2)cs1	6%
COc1ccc(C)cc1S(=O)(=O)N(CC(=O)NC1CCCC1)c1ccc(F)cc1	1%
C=CCOC(=O)C(C#N)c1nc2ccccc2nc1N1CCN(c2ccccc2OC)CC1 (stereo not drawn)	13%
COC(CNC(=O)Cn1nc(Cc2ccncc2)c2ccccc2c1=O)OC	-17%
Cc1ccc(NC(=O)CN(C)C(=O)Cn2nnc(-c3ccccc3C)n2)cc1	0%
O=C(Nc1ccc(N2CCOCC2)c(Cl)c1)c1ncn[nH]1	-23%
CCOc1cccc(C(c2c(C)n(C)n(-c3ccccc3)c2=O)c2c(C)n(C)n(-c3ccccc3)c2=O)c1OC	-3%&-10%
O=C(OC1CCOC1=O)c1ccc(CO)cc1 (stereo not drawn)	14%
COc1ccccc1N1CC(C(=O)OCC(=O)Nc2c(C)cccc2C)CC1=O (stereo not drawn)	-6%
O=C(Nc1cccc2ccccc12)c1ccc(OC(=S)N2CCOCC2)cc1	15%
CSc1nnc(C)c(=O)n1COC(=O)c1ccc([N+](=O)[O-])cc1	-11%
CCOc1ccccc1CN1CCN(Cc2c[nH]c3ccccc23)CC1CCO (stereo not drawn)	2%
COc1ccc(C(O)P(=O)(OC2CCCCC2)c2ccc(N(C)C)cc2)cc1OC (stereo not drawn)	-7%
Cc1ccc(C(=O)N2CCN=C2SCc2ccc([N+](=O)[O-])cc2)cc1	-17%
COc1ccc(OC)c(CNC(=O)CN2C(=O)CCn3nc(-c4cn(C)c5ccccc45)cc32)c1	17%
CCC(C)n1c(C)nc2c(c1=O)c1nc3ccccc3nc1n2CCC1=CCCCC1 (stereo not drawn)	3%
O=S(=O)(NCCc1csc2nc(-c3ccc(Cl)cc3)nn12)c1ccc2c(c1)OCCO2	5%
COc1cc(C(=O)Nc2ccc(NC(C)=O)cc2)ccc1OCc1ccccc1	7%
COc1ccc(OC)c(S(=O)(=O)N/N=C(/C)c2ccc3c(c2)OCO3)c1	5%
Cc1cccc(NC(=O)c2oc3ccccc3c2NC(=O)c2cc(=O)c3cc(Cl)ccc3o2)c1	19%
CCOC(=O)C1(Cc2ccccc2)CCN(Cc2ccc(C)s2)CC1	-28%
CC1(C)C[C@H]2C3=CCC4[C@@]5(C)CC[C@H](O[C@@H]6O[C@H](C(=O)O)[C@@H](O)[C@H](O)[C@H]6O)[C@@](C)(CO)C5CC[C@@]4(C)[C@]3(C)C[C@H](O)[C@@]2(CO)[C@@H](O)[C@@H]1O (stereo partly drawn)	-6%
COc1ccc(-n2ccnc(NCCc3ccc(S(N)(=O)=O)cc3)c2=O)cc1	-3%
COc1cccc(C(=O)OCCN2CCCCC2)c1	8%
O=C(Nc1cccc(-c2nc3ccccc3s2)c1)c1cc(=O)c2ccccc2o1	-2%
Cc1nn(C(C)(C)C)c(OC(=O)c2ccc3c(c2)OCO3)c1S(=O)(=O)c1ccccc1	-1%
Cc1ccc(C(=O)NCC(=O)O)cc1S(=O)(=O)N1CCCCC1	8%
CCCCNC(=O)CC1Nc2cc(C)c(C)cc2NC1=O (stereo not drawn)	-8%

Additional results.
SMILES	VDR inh
COc1ccc(-n2c(SCC(=O)Nc3cccc(C)c3C)nc3c([nH]c4ccccc43)c2=O)cc1	6%
COc1ccc(CNC(=O)C2CCN(S(=O)(=O)c3cc(OC)ccc3OC)CC2)cc1	9%
CC(OC(=O)c1ccc2ncsc2c1)C(=O)Nc1ncc(Cl)cc1Cl (stereo not drawn)	-6%
Cc1c(Cl)cccc1NC(=O)c1ccc(-n2ccnc2)nc1	6%
O=C(COc1ccccc1)Nc1ccc(C(=O)OCc2cc(=O)n3nc(C4CC4)sc3n2)cc1	6%
O=C(O)CCSCC(=O)Nc1c(C(=O)C2CC2)oc2ccccc12	-4%
COc1cc2c(cc1OC)C1(Nc3c-2c(C)nn3-c2ccccc2)C(=O)Nc2ccccc21 (stereo not drawn)	1%
COC(=O)c1cc(C(=O)c2c(C)cc3ccccn23)cc([N+](=O)[O-])c1	-7%
COC(=O)Cn1c(C)c(C#N)c2ccccc21	-1%
O=C(NC1CCCc2ccccc21)C1CCN(S(=O)(=O)c2cnc[nH]2)CC1 (stereo not drawn)	17%
Cc1ccc(NS(=O)(=O)c2ccc(-c3ccc(=O)[nH]n3)o2)cc1N(C)C	11%
CCOC(=O)c1c(NC(=O)c2cc(-c3cccc(OC)c3)on2)sc2c1CCCC2	79µM*
CN(CC(=O)Nc1ccc(F)cc1[N+](=O)[O-])Cc1ccccc1	-9%
COc1ncc2nc(C)c(=O)n(C3CC3)c2n1	-4%
O=C(Cc1cccs1)N1CCN=C1SCc1cccc(F)c1	-3%
Cc1ccc(/C=N/Nc2ccc(F)cc2)s1	-3%
Cc1c(C(=O)OCCOc2ccccc2)[nH]c2c1C(=O)CC(c1ccccc1)C2 (stereo not drawn)	1%
COc1cc(N)c(Cl)cc1C(=O)NC1CCN(Cc2ccccc2)CC1	-6%&8%&8%
N/C(=N\c1nc2ccccc2o1)NC(=O)c1cccc(Cl)c1	-3%
CC(=O)O[C@@H]1[C@H](OC(=O)CC(C)C)c2c(ccc3ccc(=O)oc23)OC1(C)C	-7%
Cc1nc(SCC(=O)Nc2ccccc2C)cc(-c2ccccc2)n1	-9%
CS(=O)(=O)N(CC(=O)NCCSCc1ccccc1)c1cc(C(F)(F)F)ccc1Cl	-19%
Fc1ccc(Nc2c(-c3ccccn3)nc3ccc(Cl)cn23)cc1	7%
COc1cccc2c(=O)n(CC(=O)Nc3ccccc3F)ccc12	7%
O=C(Cn1ncc2c3ccccc3n(Cc3ccc(Cl)cc3)c2c1=O)NCCC1=CCCCC1	1%
CCc1ccc(C2NC(=O)c3ccccc3O2)cc1 (stereo not drawn)	-24%
CC1CN(S(=O)(=O)c2cccc(C(=O)NCCc3ccc(S(N)(=O)=O)cc3)c2)CC(C)O1 (stereo not drawn)	3%
O=C(Nc1nccs1)C1CCCN1S(=O)(=O)c1ccc(F)cc1 (stereo not drawn)	4%
CCc1ccccc1NC(=O)c1cn(C)c(=O)c2ccccc12	-10%
c1ccc2c3nnc4n(c-3nc2c1)CCCS4	-10%
CN(N)c1nc(C(F)(F)F)nc2ccccc12	0%
CCc1ccccc1NC(=O)CN(C)C(=O)CSc1nn(-c2ccccc2)c(=S)s1	-5%
Cc1cc(C)n2nc(C(=O)OCC(=O)Nc3ccc4c(c3)OCO4)nc2n1	0%
COc1ccc(OC)c(/C=N\NC(=O)CSc2nnc(CCCc3ccc(OC)c(C)c3)o2)c1	3%
CC1(C)CC(CCC(=O)NC(=S)Nc2ccccc2Cl)C(=O)O1 (stereo not drawn)	-3%
CCOc1ccc(NS(=O)(=O)c2cc(NC(=O)CCNC(=O)c3ccco3)ccc2OC)cc1	-7%
O=S(=O)(Nc1ccc(O)c(NS(=O)(=O)c2ccccc2)c1)c1ccccc1	5%
CCNc1nc(NCC)nc(Oc2ccc(C(=O)OC)cc2)n1	-5%
Cc1cccc(NC2CNC(=O)NC2=O)c1 (stereo not drawn)	-14%
COc1ccc(OCCCC(=O)Nc2cc([N+](=O)[O-])ccc2C)cc1	14%
CC(C)c1nnc(NC(=O)Cc2ccc(Br)cc2)s1	-16%
O=C1/C(=C/c2cccnc2)SC(=S)N1c1ccc(F)cc1	8%
COc1ccccc1CNc1ccc(-c2nc(-c3ccco3)no2)cc1[N+](=O)[O-]	19%
COc1cc(OC)c(NC(=S)Nc2cccc(C(C)=O)c2)cc1Cl	-2%
CCOC(=O)CSCC(=O)Nc1nnc(-c2cccc([N+](=O)[O-])c2)s1	1%
O=C(CCS(=O)(=O)Cc1ccccc1)NCCc1ccccc1	1%
CCc1nc(SCC(=O)OC)c2c3c(sc2n1)COC(C)(C)C3	-19%
CC(=O)c1cccc(CN2CCN(CCC(C)C)C(CCO)C2)c1 (stereo not drawn)	3%
NS(=O)(=O)c1ccc(CCNCc2cc(Cl)ccc2OCc2ccccc2)cc1	-12%
COC(=O)c1n[nH]nc1-c1ccccc1	-16%
O=c1cnc2ccccc2n1Cc1ccc(Br)cc1	-16%
Cn1ccnc1Sc1nc(Nc2cccc(Cl)c2)nc(N2CCOCC2)n1	-3%
COc1ccccc1OCCC(=O)Nc1cccc(S(=O)(=O)N2CCOCC2)c1	5%
Cc1ccc(Cl)cc1NC(=O)N1CCC2(CC1)Oc1ccccc1C(=O)N2Cc1ccccc1F	-22%
COc1ccc(OC)c(NC(=O)c2ccc(CN3CCOCC3)cc2)c1	-11%
C=CCNC(=O)c1ccc(N(Cc2ccc(Cl)cc2)S(C)(=O)=O)cc1	-8%
Cc1ccc2[nH]c(C(=O)NCCN3CCCC3)cc2c1	8%
COc1ccc(S(=O)(=O)NC(C)C(=O)NC2CC2)cc1C (stereo not drawn)	-3%

Compound activity from PubChem BioAssay.
